# High-throughput results as filed in PubChem BioAssay.
# Lassa entry inh: qHTS for Inhibitors of binding or entry into cells for Lassa Virus; Lassa virus pseudotype entry inhibition, cell reporter; control for the full effect not named in the record; Potency, µM (titrated, usually from 37.9 µM), for the others: at the highest dose activity change, negative = inhibition, hits mostly inhibitors; 300,000 tested, 1.2% active; AID 540256, 2011; active means well fitted inhibition curve with a large enough effect; inconclusive means small, poorly fitted or top-dose-only effect, or effect the other way; inactive means flat fitted curve, though single readings scatter; tested in HEK293 cells; also: % is scaled to controls: 0 for no effect and ±100 for the full control effect; nearly all actives have a fitted effect of over 50% in size; luciferase read-out
# Marburg entry inh: qHTS for inhibitors of binding or entry into cells for Marburg Virus; AID 540276, 2011; Potency, µM (titrated, usually from 37.8 µM), without a hit: at the highest dose activity change, negative = inhibition, actives largely listed as inhibitors; 300,000 tested, 1.8% active; Marburg virus pseudotyped entry inhibition, cell reporter; control for the full effect not named in the record; about a third of the inactives were read at about 46 µM; active = well fitted inhibition curve with a large enough effect; inconclusive = small, poorly fitted or top-dose-only effect, or effect the other way; inactive = flat fitted curve, though single readings scatter; tested in HEK293 cells; about a fifth of its hits are not listed in these tables; also: % is scaled to controls: 0 for no effect and ±100 for the full control effect; luciferase read-out
# StopGo reporter: High Throughput Screening for Foot and Mouth Disease Virus Antivirals | AID 1159524, 2015 | 410,000 tested, 1.2% active | human cells with a luciferase reporter of 2A StopGo recoding; control for the full effect not named in the record | Potency, µM (highest dose often 57.9 µM), without a hit: top-dose signal change, negative = less light; active = well fitted falling curve with a large enough effect; inconclusive = small, poorly fitted or top-dose-only effect; inactive = no such curve, though single readings can be large or run the other way; tested in HEK293T cells; also: % is scaled to controls: 0 for no effect and ±100 for the full control effect; nearly all actives have a fitted effect of over 45% in size; luciferase light after 4 h
# Cruzain noTriton: qHTS Assay for Promiscuous and Specific Inhibitors of Cruzain (without detergent). Cruzipain (Trypanosoma cruzi), P25779. purified cruzain, Z-FR-AMC fluorescence, no detergent. Potency, µM, for the others: max response, negative = inhibition, usual class: inhibitors. 200,000 tested, 2.3% active; active = well fitted curve in the direction sought with a large enough effect; inconclusive = small, poorly fitted or top-dose-only effect, or another doubt; inactive = no such curve, though single readings can be large; an effect the other way counts as inactive or inconclusive;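 also: plate controls were enzyme without inhibitor for no effect and buffer without enzyme for full effect; nearly all actives have a fitted effect of over 40% in size; top concentration of the series not given in the record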
# Target sequence (P25779 123-467 limits assumed): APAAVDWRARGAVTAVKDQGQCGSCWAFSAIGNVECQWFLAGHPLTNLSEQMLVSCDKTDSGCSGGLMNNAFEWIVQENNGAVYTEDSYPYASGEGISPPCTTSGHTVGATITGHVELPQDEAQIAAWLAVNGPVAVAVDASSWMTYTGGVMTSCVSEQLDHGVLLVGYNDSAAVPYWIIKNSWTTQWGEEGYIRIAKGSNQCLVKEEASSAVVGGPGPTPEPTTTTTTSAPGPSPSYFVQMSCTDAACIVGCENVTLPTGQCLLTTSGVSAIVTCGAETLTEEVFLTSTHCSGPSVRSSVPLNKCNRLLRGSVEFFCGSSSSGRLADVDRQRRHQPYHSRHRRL
#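 Purified cruzain at 1.5 nM, pre-incubated 15 min with compound at room temperature in 100 mM sodium acetate pH 5.5, 5 mM DTT, 0.00005% Triton X-100. Reaction started with 2 uM Z-FR-AMC; AMC fluorescence increase over 60 s gives rate.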
# SARS PLpro yeast: qHTS of Yeast-based Assay for SARS-CoV PLP. S. cerevisiae expressing SARS-CoV PLpro, growth rescue; control for the full effect not named in the record. Potency, µM (series often up to 32.9 µM), for inactives: top-dose activity, positive = growth rescue. 330,000 tested, 0.19% active. AID 485353, 2010; also: 0% is about no effect; nearly all actives have a fitted effect of over 55% in size; growth read by luminescence after 48 h
# NS1 inh: qHTS Assay for Inhibitors of Influenza NS1 Protein Function; AID 2326, 2010; S. cerevisiae slowed by influenza A NS1, growth recovery by OD600; Potency, µM (highest dose often 46.1 µM), without a hit: top-dose activity, positive = more growth; 270,000 tested, 0.4% active; also: actives are rising curves; nearly all actives have a fitted effect of over 50% in size
#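 Growth recovery, yeast-based: influenza A NS1 expressed in S. cerevisiae causes slow growth, and suppressors are detected by OD600. The parent strain without NS1 is used as positive control.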
# RE007 growth inh: qHTS Assay for Inhibitors of the HIV-1 protein Vpr; Potency, µM (doses to about 92.2 µM), for inactives: at the highest dose activity change, negative = less growth; AID 651644, 2012; 360,000 tested, 0.21% active; S. pombe RE007 Vpr strain, BacTiter-Glo ATP luminescence, 24 h; control for the full effect not named in the record; active = well fitted falling curve with a large enough effect; inconclusive = small, poorly fitted or top-dose-only effect; inactive = no such curve, though single readings can be large or run the other way;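 also: % is scaled to controls: 0 for no effect and ±100 for the full control effect; nearly all actives have a fitted effect of over 50% in size; the assay follows cell death caused by Vpr and the record does not say whether a fall means rescue or toxicity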
#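 Fission yeast strain RE007, carrying one chromosomally integrated HIV-1 vpr copy, was seeded at OD 0.01 in PMG+AL medium with 23 nL pinned compound. After 24 h at 30 °C and 99% humidity, viability was read by BacTiter-Glo luminescence.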
# Cruzain inh Det: qHTS Assay for Promiscuous and Specific Inhibitors of Cruzain (with detergent); Cruzipain (Trypanosoma cruzi), P25779; purified cruzain, Z-FR-AMC fluorescence, 0.01% Triton; Potency, µM, for inactives: max response, negative = inhibition, hits mostly inhibitors; 200,000 tested, 0.43% active; active = well fitted curve in the direction sought with a large enough effect; inconclusive = small, poorly fitted or top-dose-only effect, or another doubt; inactive = no such curve, though single readings can be large; an effect the other way counts as inactive or inconclusive;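 also: plate controls were neutral wells for no effect and buffer without enzyme for full effect; nearly all actives have a fitted effect of over 40% in size; top concentration of the series not given in the record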
#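 Steps: dispense cruzain (1.5 nM final) in acetate buffer pH 5.5 with DTT and 0.01% Triton X-100; pin-transfer compounds; incubate 15 min RT; add Z-FR-AMC (2 uM final); read fluorescence every 30 s, using the 60 s intensity change.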
# The depositor's hits bear a star; ? = inconclusive; nt = no result given; & = joins results of further samples; [ ] = remark or other dose. Unless noted, calls follow the shape of the dose curve; as a rule, active means well fitted rising curve with a large enough effect; inconclusive means small, poorly fitted or top-dose-only effect; inactive means no such curve, though single readings can be large or run the other way. Potency is read from the fitted curve at half-maximal effect. Compounds as they come; about 4.5% have a hit in one of these screens.
# Each structure is followed by: Lassa entry inh | Marburg entry inh | StopGo reporter | Cruzain noTriton | SARS PLpro yeast | NS1 inh | RE007 growth inh | Cruzain inh Det
- CCOc1ccc(N(CC(=O)N2CCCC2)S(=O)(=O)c2ccc(Cl)cc2)cc1
→ 4%[46.1 µM] | -21%[46.1 µM] | 13% | nt | 1% | -1% | -11% | nt
- CN1CCC(N(C)C(=O)/C(C#N)=C/c2ccccc2)CC1
→ -5%[46.1 µM] | 11%[46.1 µM] | -8% | nt | 1% | 4% | 4% | nt
- CCNc1nc(NC(C)C)nc(Oc2ccc(=O)n(C)n2)n1
→ 8% | ? | 7% | nt | 0% | 5% | 3% | nt
- CCOC(=O)C1CCN(CC(=O)Nc2cc(S(=O)(=O)N3CCCCC3)ccc2Cl)CC1
→ ? | ? | ? | nt | 1% | nt | -1% | nt
- O=c1cc(NCc2ccco2)c2ccccc2o1
→ -21% | ? | -6% | -5% | 1% | -2% | 17% | 4.2%
- COc1ccc(NC(=O)N2CCCCCC2)cc1OC
→ nt | nt | 3% | nt | -3% | 5% | 16% | nt
- Cc1nnc(NC(=O)c2ccccc2-c2ccccc2C(=O)O)s1
→ 14% | -1%[46.1 µM] | 3% | nt | 3% | 3% | -8% | nt
- CCN(CC)CCCNC(=O)c1ccc2c(c1)NC(=O)C(CS(=O)(=O)Cc1cccc(Br)c1)N2 (configuration not stated)
→ 20%[46.1 µM] | nt | 18% | -1% | nt | nt | nt | -0.3%
- CCCCCN(C(=O)CCC(=O)OCC(=O)NC1CCC(C)CC1)c1c(N)n(CCCC)c(=O)[nH]c1=O (configuration not stated)
→ 13% | -6% | 9% | nt | -1% | nt | -3% | nt
- CCc1nn2c(=O)c(S(=O)(=O)Nc3ccc(Cl)cc3)c(C)nc2s1
→ 3%[46.1 µM] | -23%[46.1 µM] | -19%&6% | -4% | 6%&0% | 9% | 1% | -3.9%

# More compounds:
# Each structure is followed by: Lassa entry inh | Marburg entry inh | StopGo reporter | Cruzain noTriton | SARS PLpro yeast | NS1 inh | RE007 growth inh | Cruzain inh Det
- O=C(c1ccc(COc2ccccc2[N+](=O)[O-])o1)N1CCCCCC1
→ -18% | 3% | 9% | 0% | 8% | -15% | -4% | 7.7%
- Nc1nc(SCC(=O)NC2CCCc3ccccc32)n[nH]1 (configuration not stated)
→ -7% | ? | 4% | nt | -2% | 1% | 19% | nt
- Cn1nc(C(F)(F)F)c(C(=O)Nc2cccc(Cl)c2)c1Cl
→ 0% | -6% | 3% | 7% | 2% | -28% | 1% | 3.3%
- COC(=O)CN=C1OC(=O)N2C(=O)C3=C4[C@@H](C[C@H]5C(=O)N(c6ccccc6)C(=O)[C@H]5[C@H]4[C@@]12Cc1ccccc1)[C@H]1C(=O)N(c2ccccc2)C(=O)[C@H]1[C@H]3C
→ nt | nt | -2% | nt | 1% | -16% | 8% | nt
- C=CCn1c(O)c(C(CC)=NCc2cccnc2)c(=O)[nH]c1=O
→ -3% | 5% | 2% | -16% | 5% | 15% | -13% | -0.4%
- CCOC(=O)COc1ccc2c(=O)c(-c3ccccc3)coc2c1
→ 9%[46.1 µM] | 2%[46.1 µM] | 0% | nt | -7% | -42% | -23% | nt
- O=C(/C=C/c1cccc(Cl)c1)NCCCN1CCOCC1
→ nt | nt | -1% | nt | -4% | 7% | -7% | nt
- Cc1ccc2c(c1)c(CC(=O)Nc1ccc(F)cc1)c(C(=O)O)n2C
→ 20% | 3% | nt | -1% | -8% | 24% | 5% | -2.1%
- COc1ccccc1-c1noc2ncnc(Nc3cccc(C)c3C)c12
→ nt | nt | 0% | nt | 2% | 9% | 14% | nt
- CN(C)c1ccc(NC(=O)/C=C/c2ccccc2Cl)cc1
→ -12% | -12% | 0% | -15% | 1% | 13% | -8% | -3.7%

# Continuation:
Molecule | Lassa entry inh | Marburg entry inh | StopGo reporter | Cruzain noTriton | SARS PLpro yeast | NS1 inh | RE007 growth inh | Cruzain inh Det
O=C(NCc1ccccc1F)C12CC3CC(CC(C3)C1)C2 | -30% | 6%[46.1 µM] | -14% | nt | nt | nt | 6% | nt
CSc1ccccc1C(=O)NC1CCCCCC1 | 2% | -2% | 0% | -2% | 3% | 10% | ? | 1.7%
Cc1nn(-c2ccccc2)c(N)c1Sc1cccc([N+](=O)[O-])c1 | 0% | -21% | ? | -2% | -8% | -39% | -4% | -4.3%
Cc1nc(NCCc2ccc(S(N)(=O)=O)cc2)c2c3c(sc2n1)CCC3 | 4% | ? | -26% | -16% | -7% | -2% | 13% | -8.8%
O=C(CSc1ccccc1)Nc1ccc(-c2nc3ccccc3[nH]2)cc1 | -29% | ? | 21% | ? | -17% | 12% | 35% | -16%
CC(C)c1ccc(NC2CCCN(C(=O)CCc3cnn(C)c3)C2)cc1 (configuration not stated) | 3% | ? | -11% | nt | 0% | 0% | 5% | nt
CCOC(=O)Cc1csc(NC(=O)c2csc3c2CCCC3)n1 | -12%[14.3 µM] | ? | 6% | -22% | -7% | -102% | -8% | -9.3%
COc1ccc(NC(=O)c2cc(C3CC3)nc3c2c(C)nn3-c2ccccc2)cc1 | 1%[46.1 µM] | nt | -16% | -15% | nt | nt | nt | -0.5%
C=CCOc1c(CNc2cccc(C(=O)O)c2)cccc1OC | ? | ? | -21% | ? | 11% | -4% | 0% | -0.6%
COC(=O)c1cn(NC(=O)c2ccc([N+](=O)[O-])c(C)c2)c(=O)c2ccccc12 | -22% | ? | -6% | nt | 0% | nt | -16% | nt

# Part of the list above, field by field:
> C=CCn1c(O)c(C(CC)=NCc2cccnc2)c(=O)[nH]c1=O
  Lassa entry inh = -3%
  Marburg entry inh = 5%
  StopGo reporter = 2%
  Cruzain noTriton = -16%
  SARS PLpro yeast = 5%
  NS1 inh = 15%
  RE007 growth inh = -13%
  Cruzain inh Det = -0.4%

> CCOC(=O)COc1ccc2c(=O)c(-c3ccccc3)coc2c1
  Lassa entry inh = 9%[46.1 µM]
  Marburg entry inh = 2%[46.1 µM]
  StopGo reporter = 0%
  Cruzain noTriton = nt
  SARS PLpro yeast = -7%
  NS1 inh = -42%
  RE007 growth inh = -23%
  Cruzain inh Det = nt

> O=C(/C=C/c1cccc(Cl)c1)NCCCN1CCOCC1
  Lassa entry inh = nt
  Marburg entry inh = nt
  StopGo reporter = -1%
  Cruzain noTriton = nt
  SARS PLpro yeast = -4%
  NS1 inh = 7%
  RE007 growth inh = -7%
  Cruzain inh Det = nt
